Cruzain Triton: qHTS Assay for Promiscuous and Specific Inhibitors of Cruzain (with detergent); Cruzipain (Trypanosoma cruzi), P25779; purified cruzain, Z-FR-AMC fluorescence, 0.01% Triton; Potency, µM, inactives show max response, negative = inhibition, hits mostly inhibitors; 200,000 tested, 0.43% active; AID 1478, 2009;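 also: plate controls were neutral wells for no effect and buffer without enzyme for full effect; nearly all actives have a fitted effect of over 40% in size; top concentration of the series not given in the record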
Target sequence (P25779 123-467 limits assumed): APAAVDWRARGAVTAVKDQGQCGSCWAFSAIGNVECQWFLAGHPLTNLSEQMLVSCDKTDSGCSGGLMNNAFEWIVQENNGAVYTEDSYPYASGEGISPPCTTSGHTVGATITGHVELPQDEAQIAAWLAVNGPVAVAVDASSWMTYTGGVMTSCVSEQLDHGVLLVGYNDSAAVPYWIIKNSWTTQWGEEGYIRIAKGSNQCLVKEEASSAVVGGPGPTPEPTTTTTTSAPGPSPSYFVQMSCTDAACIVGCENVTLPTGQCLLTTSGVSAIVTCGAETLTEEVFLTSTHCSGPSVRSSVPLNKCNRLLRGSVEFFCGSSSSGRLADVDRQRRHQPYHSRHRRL
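Detergent-containing arm of a paired screen for aggregation-based inhibition: 0.01% Triton X-100 present. Cruzain at 1.5 nM cleaved 2 uM Z-FR-AMC at pH 5.5 with 5 mM DTT; AMC fluorescence gain over 60 s measured activity.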
Cruzain noTriton: qHTS Assay for Promiscuous and Specific Inhibitors of Cruzain (without detergent) | Cruzipain (Trypanosoma cruzi), P25779 | purified cruzain, Z-FR-AMC fluorescence, no detergent | Potency, µM, for inactives: max response, negative = inhibition, hits mostly inhibitors | 200,000 tested, 2.3% active | AID 1476, 2009;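 also: plate controls were enzyme without inhibitor for no effect and buffer without enzyme for full effect; nearly all actives have a fitted effect of over 40% in size; top concentration of the series not given in the record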
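Detergent-free condition (0.00005% Triton X-100) in acetate buffer pH 5.5 with DTT. 1.5 nM enzyme and compound were pre-mixed 15 min, then 2 uM Z-FR-AMC substrate added; reaction progress from fluorescence change between first and third reads (60 s).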
NS1 function inh: qHTS Assay for Inhibitors of Influenza NS1 Protein Function; Potency, µM (doses to about 46.1 µM), inactives show top-dose activity, positive = more growth; S. cerevisiae slowed by influenza A NS1, growth recovery by OD600; 270,000 tested, 0.4% active; AID 2326, 2010; active means well fitted rising curve with a large enough effect; inconclusive means small, poorly fitted or top-dose-only effect; inactive means no such curve, though single readings can be large or run the other way; also: nearly all actives have a fitted effect of over 50% in size
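Growth recovery, yeast-based: influenza A NS1 expressed in S. cerevisiae causes slow growth, and suppressors are detected by OD600. The parent strain without NS1 is used as positive control.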
SARS PLP yeast: qHTS of Yeast-based Assay for SARS-CoV PLP; S. cerevisiae expressing SARS-CoV PLpro, growth rescue; control for the full effect not named in the record; Potency, µM (highest dose often 32.9 µM), inactives show at the top dose activity, positive = growth rescue; 330,000 tested, 0.19% active; AID 485353, 2010; active means well fitted rising curve with a large enough effect; inconclusive means small, poorly fitted or top-dose-only effect; inactive means no such curve, though single readings can be large or run the other way; also: 0% is about no effect; nearly all actives have a fitted effect of over 55% in size; growth read by luminescence after 48 h
StopGo reporter: High Throughput Screening for Foot and Mouth Disease Virus Antivirals. human cells with a luciferase reporter of 2A StopGo recoding; control for the full effect not named in the record. Potency, µM (series often up to 57.9 µM), for the others: top-dose signal change, negative = less light. 410,000 tested, 1.2% active. AID 1159524, 2015; active = well fitted falling curve with a large enough effect; inconclusive = small, poorly fitted or top-dose-only effect; inactive = no such curve, though single readings can be large or run the other way; tested in HEK293T cells; also: % is scaled to controls: 0 for no effect and ±100 for the full control effect; nearly all actives have a fitted effect of over 45% in size; luciferase light after 4 h
RE007 growth inh: qHTS Assay for Inhibitors of the HIV-1 protein Vpr; S. pombe RE007 Vpr strain, BacTiter-Glo ATP luminescence, 24 h; control for the full effect not named in the record; Potency, µM (highest dose often 92.2 µM), inactives show at the top dose activity change, negative = less growth; 360,000 tested, 0.21% active; AID 651644, 2012; active = well fitted falling curve with a large enough effect; inconclusive = small, poorly fitted or top-dose-only effect; inactive = no such curve, though single readings can be large or run the other way;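 also: % is scaled to controls: 0 for no effect and ±100 for the full control effect; nearly all actives have a fitted effect of over 50% in size; the assay follows cell death caused by Vpr and the record does not say whether a fall means rescue or toxicity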
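Fission yeast strain RE007, carrying one chromosomally integrated HIV-1 vpr copy, was seeded at OD 0.01 in PMG+AL medium with 23 nL pinned compound. After 24 h at 30 °C and 99% humidity, viability was read by BacTiter-Glo luminescence.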
Lassa entry inh: qHTS for Inhibitors of binding or entry into cells for Lassa Virus; Lassa virus pseudotype entry inhibition, cell reporter; control for the full effect not named in the record; AID 540256, 2011; Potency, µM (highest dose often 37.9 µM), for the others: at the highest dose activity change, negative = inhibition, usual class: inhibitors; 300,000 tested, 1.2% active; active means well fitted inhibition curve with a large enough effect; inconclusive means small, poorly fitted or top-dose-only effect, or effect the other way; inactive means flat fitted curve, though single readings scatter; tested in HEK293 cells; also: % is scaled to controls: 0 for no effect and ±100 for the full control effect; nearly all actives have a fitted effect of over 50% in size; luciferase read-out
MARV entry inh: qHTS for inhibitors of binding or entry into cells for Marburg Virus. Marburg virus pseudotyped entry inhibition, cell reporter; control for the full effect not named in the record; about a third of the inactives were read at about 46 µM. Potency, µM (top dose mostly 37.8 µM), for the others: at the top dose activity change, negative = inhibition, hits mostly inhibitors. 300,000 tested, 1.8% active. AID 540276, 2011; active = well fitted inhibition curve with a large enough effect; inconclusive = small, poorly fitted or top-dose-only effect, or effect the other way; inactive = flat fitted curve, though single readings scatter; tested in HEK293 cells; about a fifth of its hits are not listed in these tables; also: % is scaled to controls: 0 for no effect and ±100 for the full control effect; luciferase read-out
Active calls of the source: *; ? = inconclusive; / = not tested or not shown; & = joins results of further samples; [ ] = dose if it differs, or a comment. Unless noted, calls follow the shape of the dose curve; as a rule, active = well fitted curve in the direction sought with a large enough effect; inconclusive = small, poorly fitted or top-dose-only effect, or another doubt; inactive = no such curve, though single readings can be large; an effect the other way counts as inactive or inconclusive. Potency is read from the fitted curve at half-maximal effect.

SMILES	Cruzain Triton	Cruzain noTriton	NS1 function inh	SARS PLP yeast	StopGo reporter	RE007 growth inh	Lassa entry inh	MARV entry inh
Cc1sc(-n2cccc2)c(C(=O)O)c1C	-0.7%	-8%	-7%	-4%	-12%	13%	-8%	-17%
CCCC(=O)NNC(=O)c1ccoc1C	3.6%	7%	12%	19%	-4%	5%	?	3%
O=C(CC1C(=O)NCCN1Cc1c(F)cccc1Cl)NCCc1ccccn1 (configuration not stated)	/	/	3%	0%	20%	-2%	/	/
CC(C)(C)C(=O)Nc1cc(C(F)(F)F)ccc1-n1ccnc1	/	/	8%	-2%	-9%	47%	28%[46.1 µM]	?
C=CCn1c(-c2cc(OC)cc(OC)c2)n[nH]c1=S	5.1%	1%	-8%	-3%	-21%	-1%	7%	-2%[46.1 µM]
CC(CC(C)C(=O)N1CCOCCN(C(=O)C(C)CC(C)C(=O)O)CCOCC1)C(=O)O (configuration not stated)	3.8%	-1%	-48%	4%	2%	9%	-2%	-17%
O=C(Nc1cccc(F)c1)C1CCN(S(=O)(=O)c2cccc3nonc23)CC1	/	/	4%	0%	?	4%	1%	-19%[46.1 µM]
Cc1cc(C(F)(F)F)c2c(C)nn(CCc3nn[nH]n3)c2n1	0.9%	6%	-4%	3%	0%	13%	-6%	23%
O=C(NC1CCCCCC1)c1ccc(S(=O)(=O)NCc2ccco2)cc1	0.0%	-12%	14%	3%	6%	-6%	7%	-2%
CCOc1ccc2oc(=O)cc(C)c2c1	-4.0%	2%	-11%	6%	4%	-6%	13%	9%
CC(C)C(=O)Nc1sc2c(c1C#N)CCCCC2	-5.9%	-1%	-6%	-2%	27%	1%	-1%	10%
CS(=O)(=O)N(CCC(=O)O)Cc1ccccc1	0.8%	-5%	-4%	6%	9%	27%	3%	?
COc1cc(OC)c(C(=O)NC23CC4CC(CC(C4)C2)C3)cc1OC	/	/	26%	5%	-10%	-14%	/	/
CCCOc1ccc(Br)cc1/C=N/O	-4.7%	-12%	-44%	/	-8%	-25%	-3%	?
CC(C)(C)c1cc(C(=O)NCc2ccco2)ccn1	-0.8%	24%	2%	2%	-2%	11%	-23%[14.3 µM]	9%
Cc1ccc(-c2nn(-c3ccccc3)cc2/C=C2\SC(=S)N(CCCCCC(=O)O)C2=O)o1	/	/	?	3%	?	9%	15%	?
CCCCCCn1c(=O)c(C(=O)Nc2ncccc2O)c(O)c2ccccc21	/	/	8%	3%	-18%	8%	/	/
CCOC(=O)C(C)OC(=O)C1=C(C)NC(=O)NC1c1ccc2c(c1)OCO2 (configuration not stated)	/	/	12%	-2%	-5%	1%	/	/
Cc1cc(C)nc(/N=C(\N)c2c(O)[nH]c(=O)[nH]c2=O)n1	10%	-2%	15%	-3%	6%	-5%[3.69 µM]	6%	9%
CCN(CC)c1ccc(NC(=O)C2CCCC2)cc1	/	/	-7%	1%	32%[activator]	7%	/	/
CS(=O)(=O)c1nc(S(=O)(=O)c2ccc(Cl)cc2)c(N2CCCCCC2)s1	/	/	7%	-4%	33%[activator]	0%	-15%[46.1 µM]	13%[46.1 µM]
C[C@H](NC(=O)c1ccco1)C(=O)NCCc1ccc(S(N)(=O)=O)cc1	/	/	-1%	0%	-14%	14%	/	/
Cc1cc(C)c2c(-n3cccc3)c(C(=O)O)sc2n1	1.2%	9%	-50%	1%	-15%	2%	-11%[14.3 µM]	-2%
Cc1ccccc1C1(CCN2CCCCC2)CCOC(C)(C)C1 (configuration not stated)	0.6%	-2%	10%	8%	-7%	8%	-1%	-44%
CCOc1cc(N2CCOCC2)c(OCC)cc1NC(=O)c1ccco1	/	/	/	-8%	-13%	-18%	1%	11%[46.1 µM]

The results go on.
SMILES	Cruzain Triton	Cruzain noTriton	NS1 function inh	SARS PLP yeast	StopGo reporter	RE007 growth inh	Lassa entry inh	MARV entry inh
COc1ccccc1NC(=O)c1ccc(NC(=O)CN2CCCCC2)cc1	/	/	/	-16%	-16%	-21%	-9%[46.1 µM]	?
COCCCn1c2nc3ccccc3nc2c2c(=O)n(CC3CCCO3)cnc21 (configuration not stated)	-9.0%	-23%	4%	2%	4%	-4%	15%	15%
CCOc1ccc(S(=O)(=O)n2cnc3cc(C)c(C)cc32)cc1	2.9%	0%	-22%	?	?	5%	?	21µM*
CCCCN1C(=O)/C(=C/c2ccc(N(C)C)cc2)C(=O)N(Cc2ccco2)C1=O	-14%	18%	-22%	7%	-13%	-7%	4%	0%
Cc1ccc2c(c1)NC(=O)C(CC(=O)NCCCN1CCCC1)O2 (configuration not stated)	-1.2%	6%	1%	3%	-9%	0%	/	/
Cc1ccc(OCc2nc(-c3ccc(C(=O)N4CCN(c5ccc(Cl)cc5)CC4)cc3)oc2C)cc1	-0.9%	-8%	/	/	-26%	/	/	-16%[46.1 µM]
COc1ccc(CCCC(=O)O)c(C)c1	3.4%&0.7%	-1%&-1%	-4%&1%	3%	9%	-9%	?	16%&16%&16%
Cc1ccc(NC(=O)C2CCCN(S(=O)(=O)c3cccc4nonc34)C2)cc1 (configuration not stated)	/	/	-6%	0%	-10%	-10%	0%	13%[46.1 µM]
Cc1ccc2nc(-c3cccc(NS(C)(=O)=O)c3)cc(-c3ccccc3)c2c1	5.6%	?	4%	-87%	-19%	23%	?	-20%
COc1cccc(CNC(=O)C(NS(=O)(=O)c2ccc3nc(C)sc3c2)C(C)C)c1 (configuration not stated)	-4.4%	3%	/	/	-6%	/	?	-6%[46.1 µM]
Cc1ccc(OCC(=O)Nc2cc(-c3nc4ccccc4[nH]3)ccc2C)c(C)c1	-0.5%	12%	/	/	-1%	/	-17%[46.1 µM]	-3%[46.1 µM]
COc1ccc(N2CC(C(=O)Nc3nc4ccc(F)cc4s3)CC2=O)c(OC)c1 (configuration not stated)	/	/	-2%	2%	0%	?	2%	1%
NC(=O)c1ccccc1N/C=C/C(=O)c1ccc(Cl)cc1Cl	-4.0%	-2%	-10%	-30%	-77%	-19%	?	5.6µM*
CC(=O)Nc1ccc(S(=O)(=O)N2CN(c3ccc(C)cc3)c3nc4ccccc4nc32)cc1	/	/	/	/	9%	-13%	12%	-5%
CCOC(=O)C1=C(CN2CC(C)CC(C)C2)NC(=O)NC1c1ccc2c(c1)OCO2 (configuration not stated)	/	/	/	-1%	?	19%	?	-15%[46.1 µM]
CC(=O)Cc1nsc(NC(=O)c2ccc(-c3cccc(C(F)(F)F)c3)o2)n1	4.0%	3%	6%	1%	3%	-5%	-15%	?
C#CCOCCOCCOCCNc1nc(N2CCN(C(=O)[C@H](CCCCN)n3cc([C@@H](N)CC(C)C)nn3)CC2)nc(N2CCN(C(=O)[C@H](Cc3ccc(O)cc3)n3cc([C@@H](N)CC(C)C)nn3)CC2)n1	/	/	3%	0%	-2%	4%	/	/
Cc1oc2nc(SCC(=O)N3CCCCC3)nc(N)c2c1C	-1.8%	-13%	-5%	-17%	69%[activator]	5%	8%	16%
CC1CCC(NC(=O)c2cc(S(=O)(=O)N3CCCCC3)ccc2N2CCOCC2)CC1 (configuration not stated)	/	/	/	-1%	14%	-15%	-9%	-5%
CCOC(=O)C1=C(Cc2ccc(OC)cc2)C(=O)c2ccccc2C1=O	-16%	-13%	-91%	-27%	?	-12%	?	?
COc1ccccc1CNC(=O)CSC1=NCCS1	/	/	4%	0%	21%	-5%	-6%	4%[46.1 µM]
Cc1nn(Cc2ccccc2Cl)c(Cl)c1C(=O)NCCc1ccccc1	-2.7%	-5%	-1%	7%	53%[activator]	0%	?	24%
Cc1cccc(C)c1NC(=O)CCCCCC1NC(=O)NC1C (configuration not stated)	/	/	/	0%	12%	-7%	0%	13%[46.1 µM]
CC1CC(C)CN(S(=O)(=O)c2ccc(C(=O)N3CC(C)OC(C)C3)cc2)C1 (configuration not stated)	/	/	8%	0%	-5%	9%	2%	-1%
COc1ccc(-c2ccccc2NC(=O)C2CCCN(Cc3ccco3)C2)cc1 (configuration not stated)	/	/	3%	-1%	-7%	-5%	-8%	-15%

The results go on:
SMILES	Cruzain Triton	Cruzain noTriton	NS1 function inh	SARS PLP yeast	StopGo reporter	RE007 growth inh	Lassa entry inh	MARV entry inh
Cc1cccc(C)c1NC(=O)CCCN1C(=O)CCn2nc(-c3cn(C)c4ccccc34)cc21	-2.8%	?	/	/	0%	/	23%[46.1 µM]	/
Cc1[nH]c2ccccc2c1CN1CCC(CO)(Cc2ccccc2)CC1	/	/	-1%	-2%	-24%	28%	/	/
COc1ccc(CCNC2CC(=O)N(C3CCCCC3)C2=O)cc1OC (configuration not stated)	/	/	0%	0%	-12%	-9%	15%	?
C=CCn1c(Cc2cccc3ccccc23)n[nH]c1=S	-2.8%	-6%	-1%	22%	?	13%	-16%	?
CCN1CCN(C(=O)c2cc(COc3c(C)cccc3C)on2)CC1	/	/	-5%	-4%	17%	6%	18%[46.1 µM]	16%[46.1 µM]
CC(C(=O)OCC(=O)c1cccc([N+](=O)[O-])c1)N1C(=O)C2C3C=CC(C3)C2C1=O (configuration not stated)	/	/	-1%	1%	0%	22%	-15%	2%[46.1 µM]
O=C1C(=O)N(Cc2ccncc2)C(c2cccc(O)c2)/C1=C(\O)c1ccc2c(c1)OCCO2 (configuration not stated)	/	/	7%	3%	3%	15%	/	/
Cc1cc(C)nc(N2CCC(C(=O)NCc3ccco3)CC2)n1	0.3%	15%	-3%	?	-13%	-12%	-6%	0%
O=C(CNC(=S)N(CCCN1CCOCC1)Cc1cccs1)NC1CCCC1	/	/	2%	-5%	2%	-12%	6%[46.1 µM]	?
Cc1c(C(=O)N(Cc2nccn2C)C(C)C)oc2c(F)cccc12	/	/	5%	-1%	2%	2%	-7%[46.1 µM]	?
COc1c(C)cc(Br)cc1C(=O)Nc1cccc(-c2nc3ncccc3o2)c1	0.1%	?	-20%	-4%	-28%	15%	/	/
CC(C)(C)N1OC2CC1c1nc3ccccc3n1C2 (configuration not stated)	/	/	21%	-7%	-11%	7%	/	/
CCN1CCN(c2cc3nc(C)n(Cc4ccccc4)c(=O)c3cc2NC(=O)c2ccccc2F)CC1	/	/	-7%	0%	-6%	-1%	?	?

Screens: PubChem, National Center for Advancing Translational Sciences (NCATS)
